Bioassay records (PubChem)
rRNA inh HTS: inhibits bacterial ribosomal RNA function over humanized ribosomes; E. coli WT GFP vs humanized-ribosome RFP mutants, fluorescence, 24 h; stronger effect = lower value; DMSO median 0, no signal -100; GFP signal change (wild-type ribosome), % (concentration not given with the values); 1.6% of 350,000 active;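 active means significant combined selectivity score with lowered wild-type GFP, culture density cut under 30%, mutant RFP and density less affected; inactive means any of these conditions unmet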; further: one replicate is shown; some compounds called inactive have numbers as strong as hits
LANA-H2A inh: blocks KSHV LANA binding to histone H2A/H2B | inhibition, % (test concentration not listed) | cell-free LANA-H2A/H2B peptide, fluorescence polarization | Q9QR71 | 0.6% of 320,000 active; in the data active means inhibition mostly above about 10%, no sharp cut-off; inactive means mostly below about 6.7%;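 further: stock transfer was 7.5 nL into about 10 µL; 0% = median of vehicle wells and 100% = median of positive control wells; one replicate is shown; the record names a cut of 25% in any replicate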
Bfl-1 A1 inh: inhibitors of the anti-apoptotic protein A1, read as caspase activation; 0.066% of 330,000 active; AID 2462; MEF A1-2A-BIM cells, Caspase-Glo 3/7 luminescence, 3 h; percent of clofoctol response, vehicle zero; caspase activation, % (no concentration beside the values);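 active means over half of replicate activation scores above 10%, or exactly half above 10 with the replicate mean above 10; inconclusive means replicate mean below 10 yet half the replicates above 10; inactive means over half of replicates below 10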;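 further: wells of about 30 µL received 50 nL stock; many hits fall short of the cut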
Beta apoptosis: beta cell apoptosis inhibition. 0.8% of 300,000 active. protection from apoptosis, % (test concentration not listed). INS-1E cytokine-induced death, ATP luminescence, 48 h; percent of positive-control rescue, neutral wells zero. AID 435005;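 active means all replicates at 75% or more, or half of them and the mean; inconclusive means half reach 75% but not the mean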;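 further: 0% = cytokine-treated negative control wells and 100% = positive control rescue; higher means more ATP so stronger rescue from cytokine killing; wells of about 40 µL received 100 nL stock; the first replicate is given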
T cruzi inh: T. cruzi replication inhibition. T. cruzi beta-gal in NIH3T3, luminescence, 90 h. 1.4% of 300,000 active. inhibition, % (concentration not given with the values). AID 1885;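 active means mean inhibition across valid replicates above about 55%, limit read from the data; inconclusive means mean below that limit but half or more replicates reach it; inactive means mean below it, under half of replicates reach it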;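 further: signal also drops with host cell toxicity which is not excluded here; 0% = plate median of DMSO wells and 100% = zero luminescence signal; higher percent means less beta-gal luminescence so fewer parasites; stock transfer was 50 nL into about 50 µL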
Calb FLC: affects C. albicans growth with fluconazole; 0.57% of 300,000 active; growth inhibition, % (concentration not given with the values); AID 1979; C. albicans CaCi-2 (fluconazole-resistant clinical isolate) + fluconazole, Alamar Blue growth, 48 h;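 active means most replicates above 75%; inconclusive means exactly half above 75%; inactive means most below 75%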;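 further: all wells also contain fluconazole at 8 µg/ml as a sub-toxic cotreatment; 0% = median of DMSO wells and 100% = median of geldanamycin control wells; wells of about 8 µL received 7.5 nL stock; the first replicate is given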
ALR inh: inhibitors of human sulfhydryl oxidase ALR | P55789 | purified ALR, DTT oxidation, H2O2 HRP-luminol luminescence | inhibition, % (no concentration beside the values) | 3.8% of 290,000 active | AID 485317;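 active means mean and each replicate at 75% or more; inconclusive means only one of the two met; inactive means neither met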;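 further: stock transfer was 7.5 nL into about 7.5 µL; 0% = neutral wells and 100% = wells with inactivated enzyme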
Target sequence (P55789 whole entry, looked up): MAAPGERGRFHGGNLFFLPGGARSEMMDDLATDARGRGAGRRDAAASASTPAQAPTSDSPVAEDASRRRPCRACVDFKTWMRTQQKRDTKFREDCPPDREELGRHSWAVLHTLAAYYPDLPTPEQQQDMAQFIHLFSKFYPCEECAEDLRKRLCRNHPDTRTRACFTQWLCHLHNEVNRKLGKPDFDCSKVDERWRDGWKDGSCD
B2AR ag: human beta-2 adrenergic receptor agonism by FAP. Am2.2-beta2AR cells, FAP receptor internalization, flow cytometry; reference of the scale not given here. P07550. response, % (no concentration beside the values). 0.43% of 340,000 active. AID 504454;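 active means response above a set limit, near 3 SD of response in nonfluorescent compounds, cut at about 42% in these data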;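 further: stock transfer was 100 nL into about 11 µL; a reference agonist was the positive control; negative values mostly stem from fluorescent compounds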
Target sequence (P07550 whole entry, looked up): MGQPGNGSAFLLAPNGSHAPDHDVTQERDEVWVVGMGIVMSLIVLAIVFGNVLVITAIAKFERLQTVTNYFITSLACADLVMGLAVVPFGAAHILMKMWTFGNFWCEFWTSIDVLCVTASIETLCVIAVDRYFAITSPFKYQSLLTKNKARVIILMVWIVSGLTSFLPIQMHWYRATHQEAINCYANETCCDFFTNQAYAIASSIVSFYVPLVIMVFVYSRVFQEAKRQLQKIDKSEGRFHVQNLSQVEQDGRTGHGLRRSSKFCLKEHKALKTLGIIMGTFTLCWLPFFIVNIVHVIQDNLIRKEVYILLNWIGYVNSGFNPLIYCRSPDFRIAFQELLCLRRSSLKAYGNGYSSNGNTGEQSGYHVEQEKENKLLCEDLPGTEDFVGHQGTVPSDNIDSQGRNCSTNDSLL
rRNA inh HTS OD600: second read-out of rRNA inh HTS, no call of its own (marks repeat the call); OD600 change, %; measured here: OD600 growth;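 optical density of the mix in the first replicate; 0 = DMSO median and -100 = no signal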
rRNA inh HTS RFP: also measured in rRNA inh HTS; calls as there; RFP signal change, %; measured here: RFP humanized mutant strains;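 first replicate; 0 = DMSO median and -100 = no signal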
* = called active by the depositor; u = inconclusive; x = no result given. A portion of the library; count on the stated rates, not on these rows.

SMILES	rRNA inh HTS	rRNA inh HTS OD600	rRNA inh HTS RFP	LANA-H2A inh	Bfl-1 A1 inh	Beta apoptosis	T cruzi inh	Calb FLC	ALR inh	B2AR ag
Nc1c(-c2cccs2)cnc2c(-c3ccc(F)cc3)cnn12	10	7	5.0	1.5	-2.0	1	6	-3	x	4
Oc1ccc(Cl)cc1CNc1ccccn1	-6	6	-1.4	-0.7	0.2	-2	1	-3	x	-8
O=C(Nc1nnc(C2COc3ccccc3O2)o1)c1ccc(F)cc1 (stereo unspecified)	x	x	x	4.2	-0.7	19	-4	86*	-2	-8
CCCc1nc2oc3cc(OC)ccc3c(=O)c2c(=O)n1Cc1ccco1	x	x	x	3.8	0.5	6	6	-6	-1	-4
O=C(CSc1nnnn1-c1ccc(Cl)cc1)NC(=O)Nc1ccc2c(c1)OCCO2	x	x	x	-0.6	0.0	-7	22	13	-6	-2
CCOC(=O)N1CCN(C(=O)Nc2sc3nc4n(c(=O)c3c2C)CCC(C)CC4)CC1 (stereo unspecified)	6	-13	26	1.6	0.0	-2	16	8	7	4
Cc1cc(C(=O)Nc2ccc(N3CCCCC3)cc2)no1	6	2	23	-5.8	-11	0	24	-26	-2	1
Cc1ccc(CSc2nnc(-c3ccco3)o2)cc1	x	x	x	1.8	1.2	-15	-12	2	3	4
CCOc1ccc(N(CC(=O)NC2CCCCC2)C(=O)CCC(=O)Nc2nccs2)cc1	6	6	3.5	4.5	0.3	0	18	41	-1	-7
Cc1ccc2c(c1)C1CN(C)CCC1N2C(=O)COc1ccc(N(C)S(=O)(=O)c2cccs2)cc1 (stereo unspecified)	-1	-6	0.5	-4.6	0.8	-3	50	-4	-19	9
COc1ccccc1N(CC(=O)NC1CCCCC1)S(=O)(=O)c1ccccc1	-5	-15	6.5	0.5	0.0	6	9	3	4	0
Cc1cc(C)n2nc(-c3cccc(Br)c3)cc2n1	-5	0	-1.9	-1.0	-1.7	0	-7	5	-3	-8
CCc1cc(C(=O)N2CCCC(C(=O)c3cccc4ccccc34)C2)n(C)n1 (stereo unspecified)	-26*	-13*	0.3*	2.4	-1.0	5	17	37	-54	0
O=C(/C=C/c1ccc(NC(=O)c2ccccc2-c2ccccc2C(=O)O)cc1)c1ccccc1	-36	-57	-4.2	3.7	-0.3	-3	-5	98*	98*	19
O=C(CSc1nnc(CN2CCOCC2)n1-c1ccccc1)N1CCc2ccccc21	x	x	x	4.3	-0.4	-2	-9	20	-24	-6
COc1ccc(N2CCN(Cc3nc4c(c(=O)n(C)c(=O)n4C)n3CC(C)=O)CC2)cc1	7	2	-1.2	-4.0	0.9	7	-5	-15	71	-8
COC(=O)C1C/C(=N/NS(=O)(=O)c2ccc(C)cc2)CS1 (stereo unspecified)	18	15	2.5	-3.1	-1.5	-3	-3	-10	-2	2
O=C(CCS(=O)(=O)c1ccccc1)OCc1ccc([N+](=O)[O-])cc1	3	3	-1.2	-3.0	-0.6	-8	-7	28	-3	0
COCc1c(C#N)c(NCc2cc(OC)c(OC)c(OC)c2)nc(C)c1[N+](=O)[O-]	-6	8	3.6	4.9	0.0	9	13	-12	-9	1
CN(C)S(=O)(=O)c1ccc(C(=O)Nc2nc(-c3cc4ccccc4o3)cs2)cc1	-5	-8	-2.5	-4.1	-0.2	29	33	11	-3	4
Cc1ccc(NS(=O)(=O)c2ccc(NC(=O)c3ccc(-c4ccccc4)cc3)cc2)c(C)c1	x	x	x	0.5	0.2	-5	-1	-3	3	2
Cc1ccc(S(=O)(=O)CCC(=O)Nc2ccc3nc(C)sc3c2)cc1	1	7	4.7	0.8	1.0	-3	-17	20	2	-4
COc1ccc(/C=C2\SC(=S)N(CC3CCCO3)C2=O)cc1 (stereo unspecified)	-3	-1	7.6	-1.1	-1.4	-4	-4	-3	-5	0
CC(C)Cn1c(N)c(C(=O)COC(=O)c2cccc(Cl)c2)c(=O)n(C)c1=O	-28*	-15*	-5.8*	-3.8	0.5	7	8	-2	x	0
CCC(CO)n1cnnc1-c1ccncc1 (stereo unspecified)	x	x	x	-0.3	0.0	-3	-9	2	-18	5
Cc1ccc(C(=O)N2CCc3ccccc3C2)cc1S(=O)(=O)N1CCOCC1	6	-7	4.3	1.2	0.2	0	5	-3	-4	-13
CCn1c(N2CCN(S(=O)(=O)CC)CC2)nc2ccccc21	5	-2	0.5	-5.7	1.0	4	-9	-18	0	-11
CCOC(=O)CSc1[nH]c(=O)cc(C)c1C#N	x	x	x	-0.6	0.1	-2	-3	-7	-5	0
COc1ccc(C2C(C(=O)c3ccccc3)=C(C)Nc3nc4ccccc4n32)c(OC)c1 (stereo unspecified)	x	x	x	-4.9	1.2	x	52	8	-7	0
CCOC(=O)c1sc(SC)nc1N	16	12	-0.1	-3.1	0.3	0	-12	-12	-5	2
Cc1cccc(C)c1NC(=S)Nc1c(C)n(C)n(-c2ccccc2)c1=O	10	15	-4.1	-4.0	1.0	4	2	-1	8	-1
COc1cc(NC(=O)COc2ccc(-n3cnnn3)cc2)cc(OC)c1OC	4	-1	-1.9	-1.0	-0.4	3	x	x	-12	-5
CC(=O)c1cccc(NC(=O)N2CCCC2C(=O)NC2CCCCC2)c1 (stereo unspecified)	x	x	x	1.5	1.0	1	2	7	1	-4
CCOC(=O)c1cc2sc(C)cc2n1CCCN1C(=O)c2ccccc2C1=O	x	x	x	-3.2	0.2	-3	12	u	29	0
O=C(CSc1nnc(COc2ccc(Cl)cc2)o1)NC1CC2CCC1C2 (stereo unspecified)	-3	3	0.5	1.0	0.0	x	2	-5	-11	-5
CCOC(=O)c1c(NC(=O)C2C3CCC(O3)C2C(=O)O)sc2c1CCCC2 (stereo unspecified)	-6	-4	-2.5	2.8	-0.5	x	-8	16	-4	15
CC(C)Cn1c(SCC(=O)N(C)c2c(N)n(Cc3ccccc3)c(=O)[nH]c2=O)nc2ccccc21	5	8	-0.9	-2.8	1.0	-2	-12	0	-5	-4
CCOC(=O)c1ccc2c(c1)N(CC(=O)N1CCCCC1)C(=O)C(C)(C)O2	x	x	x	-0.8	0.3	2	9	u	-24	6
CC(C)c1ccc(/C=N/NC(=O)C2CCCC2)cc1	0	-3	0.0	3.6	0.3	1	-4	2	-6	3
O=C(Nc1ccc(Cl)cc1C(=O)NCc1cccnc1)c1ccc(Cl)cc1Cl	-12	-12	15	-1.3	0.1	5	4	-5	-1	-5
CCOc1ccc2c3c(c(=O)oc2c1OCC)CCCC3	x	x	x	-2.0	0.0	x	26	-7	-4	x
Cc1cc(O)c(C2=Nc3ccccc3SC(c3ccc(Cl)cc3)C2)c(=O)o1 (stereo unspecified)	x	x	x	4.3	-2.2	3	6	-11	32	-10
CCCCN(C)CCCNC(=O)C1CCC(CNS(=O)(=O)c2c(C)cc(C)cc2C)CC1 (stereo unspecified)	0	7	0.6	1.4	0.2	-4	44	6	2	7
Cc1ccc(NC(=O)CSc2sc3c(O)cc(=O)[nH]c3c2C#N)cc1C	4	7	7.4	6.1	0.4	-13	-6	-14	98*	5
O=C(N/N=C/C1=C(N2CCOCC2)C(=C\c2ccccc2)/CC1)Nc1ccccc1	x	x	x	-4.5	0.4	15	-34	-5	-1	-9
CC(C)NC(=O)CCS(=O)(=O)c1cccc2nonc12	x	x	x	-3.6	0.4	3	-3	-7	x	-1
CC1(C)CC(=O)c2cc(C(=O)Nn3cnnc3)c(=O)n(-c3ccccc3)c2C1	x	x	x	-1.2	0.0	-2	-7	-6	27	10
CC(=O)Nc1nc(SCC(=O)Nc2nnc(C)s2)[nH]c(=O)c1NC(=O)c1cccs1	-1	0	-5.9	1.2	-0.5	-2	-6	5	-7	0
COc1cccc(/C=N/n2nnnc2N)c1O	7	5	-2.3	12	0.2	-3	-4	-2	62	0
O=C(NCCc1ccccc1)c1ccc2c(c1)N(Cc1ccccc1)C(=O)CS2=O (stereo unspecified)	-15	-30	-1.9	0.4	0.9	1	1	1	-9	-2
COc1ccc(NC(=O)CSc2ccc(NC(C)=O)cc2)cc1S(=O)(=O)N1CCOCC1	-1	7	-3.4	3.9	0.6	-6	x	x	21	6
O=Cc1cn(CC(=O)N2CCCCCC2)c2ccccc12	1	4	4.3	3.6	0.4	3	4	-8	-4	-7
COc1ccccc1CNC(=O)c1ccc(-c2ccccc2C(F)(F)F)o1	-30	-47	13	-1.7	-0.2	2	8	8	x	-3
COc1ccc(-c2cc(C(F)(F)F)nc(N3CCOCC3)n2)cc1OC	x	x	x	2.0	-0.3	-4	19	-4	-8	0
CCc1nnc(NS(=O)(=O)c2ccc(Nc3ccc4nonc4c3[N+](=O)[O-])cc2)s1	-7	5	-1.6	-0.2	0.3	x	-8	2	-9	-20
COC(=O)Cn1c2ccc(Cl)cc2c2nc(C)sc21	4	7	-0.4	4.4	0.1	-8	-8	25	-12	-3
CCOC(=O)c1cc(-c2ccccc2)nn1CCC#N	1	8	-0.9	-4.5	-1.7	0	-12	-2	-10	16
CN(CCCNC(=O)CCC(=O)N1CCOc2ccccc21)Cc1ccccc1	5	12	-4.2	0.9	-1.0	-1	11	-1	-11	8
O=C(NCCC1=CCCCC1)c1cc(S(=O)(=O)N2CCOCC2)ccc1F	8	4	-1.0	0.3	0.3	-1	11	x	2	-3
CCN(Cc1ccccc1)C(=O)Cn1c(=O)n(CCC(=O)N2CCCCC2)c(=O)c2sccc21	9	4	2.5	4.5	-0.2	3	-3	-4	9	-10

More results follow.
SMILES	rRNA inh HTS	rRNA inh HTS OD600	rRNA inh HTS RFP	LANA-H2A inh	Bfl-1 A1 inh	Beta apoptosis	T cruzi inh	Calb FLC	ALR inh	B2AR ag
CCOc1ccc(-c2nnn(CC(=O)NCc3ccc(OC)cc3)n2)cc1OCC	x	x	x	-0.1	0.2	5	0	7	-12	-13
Cc1cc(=O)[nH]c(N/N=C/c2sccc2C)n1	x	x	x	2.4	-3.0	1	-12	-20	x	-4
COc1ccc(-n2c(=S)[nH]c3cc(C(=O)NCc4ccccc4)ccc3c2=O)c(OC)c1	2	-13	-1.6	-1.6	-0.8	4	-3	6	2	2
O=C1c2ccccc2S(=O)(=O)c2cc(C(=O)N3CCC(O)CC3)ccc21	1	3	0.4	-2.3	-0.1	-10	-30	-4	-1	-1
CCn1cc(Br)c(-c2nc3ccccc3c(=O)n2N)n1	x	x	x	-1.6	u	-2	-2	1	0	-2
O=c1nc(-c2ccccc2)c(-c2ccccc2)n[nH]1	7	6	2.1	-3.8	0.5	-1	5	-4	1	-1
CC(=O)Nc1cc2ccccc2oc1=O	9	8	-1.4	-1.3	-0.6	-1	-1	-5	-13	2
CN(C)c1ccc(/C=N/NC(=O)c2cc(-c3ccc4c(c3)OCO4)n[nH]2)cc1	-14	-3	14	-4.6	-5.7	x	-2	2	5	-1
COc1ccnc2c1c(=O)n(Cc1ccc(Cl)cc1Cl)c(=O)n2C	4	7	-1.8	-0.9	1.9	12	0	-4	-1	-5
